# Menin-MLL FL inh: displaces fluorescein MLL peptide from human menin; Fluorescence polarization, fluorescein-MLL peptide displacement from menin; FP activity change, % at 61.4 µM; 290,000 tested, under 10 active; inconclusive = falling polarisation curve, or a change in total fluorescence; inactive = total fluorescence flat and polarisation flat or rising; no compound was filed as active; the % refers to the polarisation; negative = inhibition;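 further: % of control where 0% means no effect; inhibitors lower the polarisation; unlabelled MLL peptide was the positive control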
# Sfp PPTase inh: Sfp phosphopantetheinyl transferase inhibition | Q9F4F7 | Biochemical Sfp PPTase activity, qHTS | Potency, µM, for the others: max response, negative = inhibition, actives largely listed as inhibitors | hit rate 3.5% among 310,000 | AID 1490; active means well fitted inhibition curve with a large enough effect; inconclusive means small, poorly fitted or top-dose-only effect, or another doubt; inactive means no such curve, though single readings can be large or run the other way;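 further: the enzyme is Sfp with the accession as filed and its product quenches rhodamine fluorescence; potency means the concentration at half of the fitted maximal effect; 0% = enzyme reaction without inhibitor and -100% = no enzyme wells; top concentration of the series not given in the record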
#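 Fluorescence-quenching assay with 15 nM Sfp, 5 uM rhodamine-CoA and 12.5 uM BHQ-2-labelled ybbR peptide in pH 7.6 Hepes/MgCl2 buffer. Enzyme was pre-incubated with compound for 15 min at room temperature. Rate was taken from the 30-min fluorescence change (525/598 nm).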
# Active calls of the source: *; ? = inconclusive; & = joins results of further samples; [ ] = remark or other dose.
Menin-MLL FL inh	Sfp PPTase inh	SMILES
0.0	13%	COC(=O)C1CC1C(NC(=O)[C@H]1CCCCN1)c1ccccc1 (stereo partly specified)
-0.2	-1%	COC(=O)[C@H]1CC2(CC=C(C)C)C(=O)[C@@](CC=C(C)C)(C(=O)C(C(=O)c3ccccc3)=C2OC)C1(C)C (tested in a mixture with another compound)
8.7	11%	COc1cccc(Cn2c(=O)c(C)nc3cnc(N4CCOCC4)nc32)c1
-1.8	-6%	O=C(c1ccncc1)N1CCC2(CCN(Cc3ccccc3)CC2)CC1
-0.5	8%	O=C1C[C@@H](c2ccccc2Cl)N1S(=O)(=O)c1ccccc1[N+](=O)[O-]
?	23%	CCNc1ncc2nc(-c3ccc(OC)cc3)c(=O)n(CCOC)c2n1
0.0	12%	COc1ccc(Oc2ncc3nc(C)c(=O)n(-c4ccc(OC)cc4)c3n2)cc1
4.5	-6%	CC(C)C[C@H](NC(=O)[C@H](CC(C)C)NC(=O)[C@H](CCC(N)=O)NC(=O)[C@H](CO)NC(=O)[C@@H]1CCCN1C(=O)[C@H](CO)NC(=O)[C@H](CO)NC(=O)[C@@H](NC(=O)[C@H](Cc1cnc[nH]1)NC(=O)[C@H](CCC(=O)O)NC(=O)[C@H](Cc1ccc(O)cc1)NC(=O)[C@H](CCCCN)NC(=O)[C@H](CCC(N)=O)NC(=O)[C@H](Cc1ccc(O)cc1)NC(=O)[C@H](CC(=O)O)NC(=O)[C@@H](NC(=O)[C@@H]1CCCN1C(=O)[C@H](CC(=O)O)NC(=O)[C@H](CC(N)=O)NC(=O)[C@H](CC(=O)O)NC(=O)CNC(=O)[C@H](CC(=O)O)NC(=O)[C@@H]1CCCN1C(=O)[C@H](CCC(N)=O)NC(=O)[C@H](Cc1ccc(O)cc1)NC(=O)[C@H](C)NC(=O)[C@H](Cc1c[nH]c2ccccc12)NC(=O)[C@H](Cc1ccccc1)NC(=O)[C@@H](NC(=O)[C@@H](N)CO)[C@@H](C)O)[C@@H](C)O)[C@@H](C)O)C(=O)N[C@@H](C)C(=O)N1CCC[C@H]1C(=O)NCC(=O)N[C@@H](CC(=O)O)C(=O)N[C@@H](Cc1ccc(O)cc1)C(=O)O
-3.5	5%	COCC(=O)N1CCC2(CC1)CN(c1ccc(-c3ccccc3)cc1)C2
?	?	COc1ccc(C(=O)N2CCC3(CCCN(c4cccc(-c5ccccc5)c4)C3)CC2)cc1
?	-2%	OC[C@@H](O)COc1cccc2ccccc12
-5.1	17%	CCN1C(=O)[C@@H]2[C@H](C1=O)[C@@H]1C[C@H]3C(=O)N(CC)C(=O)[C@H]3[C@@H]3C1=C(C(=O)N1C(=O)O/C(=N\CC4CC4)[C@]31C)[C@@H]2C
-0.7	-12%	COCCn1c(=O)c(-c2cccc(C#N)c2)nc2cnc(OCc3ccccc3)nc21
0.7	-15%	O=C(c1cccc(F)c1)N1CCC2(CC1)CN(c1cccc(-c3ccccc3)c1)C2
2.7	6%	Cc1noc(C)c1-c1nccc(NCCN2CCOCC2)n1
3.1	15%	CC(C)C[C@H](NC(=O)[C@@H]1CCC(=O)N1)C(=O)N[C@@H](Cc1ccc(O)cc1)C(=O)N[C@@H](CCC(=O)O)C(=O)N[C@@H](CC(N)=O)C(=O)N[C@@H](CCCCN)C(=O)N1CCC[C@H]1C(=O)N[C@@H](CCCN=C(N)N)C(=O)N[C@@H](CCCN=C(N)N)C(=O)N1CCC[C@H]1C(=O)N[C@@H](Cc1ccc(O)cc1)C(=O)O
0.2	2%	COc1cc(OC)c2c(=O)c(-c3ccccc3)c(C)oc2c1OC
10	2%	COc1cccc(Cn2c(=O)c(-c3ccc(Cl)cc3)nc3cncnc32)c1
-1.1	-2%	O=S(=O)(c1ccccc1)N1CCC2(CCCN(c3ccccc3)C2)CC1
14	17%	COc1ccc(C(=O)N2CCC3(CCCN(Cc4ccc(C#N)cc4)C3)CC2)cc1
5.7[94.6 µM]	-12%	Cc1ccccc1C1CC(=O)Oc2ccc(C(C)(C)C)cc21 (stereo unspecified)
2.4[11.7 µM]	?	CCc1cc2c(nc1CC)CCN(CC/C(C)=N/O[C@@H](C)c1cn([C@@H]3COC[C@@H]3O)nn1)C2
0.0[24.8 µM]	7%	CC(=O)[C@@H]1CC[C@@H]2[C@@H]3CCC4=CC(=O)CC[C@@]4(C)[C@H]3CC[C@]21C
-1.6	-15%	COc1c2c(cc3c1C(CC(=O)c1c(O)c(OC)c4occc4c1OC)[N+](C)(C)CC3)OCO2 (stereo unspecified)
-0.5	79µM*	O=c1c2ccccc2oc2cc(O)c(C3COCC(CO)C(O)C(O)C3O)c(O)c12 (stereo unspecified)
14[11.7 µM]	-3%	CCCCCCC1=Cc2cc(OC)c(OC)cc2C(CC(=O)/C=C/OC)O1 (stereo unspecified)
-2.6	-2%	COC1C(O)C(CO)OC1n1c(Br)nc2c(=O)[nH]c(N)nc21 (stereo unspecified)
0.9	8%	COC(=O)[C@@]1(Cc2ccccc2)[C@H]2c3cc(C(=O)N4CCCC4)n(CCN4CNCC4=O)c3C[C@H]2CN1C(=O)c1ccccc1
-0.6	17%	CCCn1c(C)nc2c(NCCN3CCCC3)nc(C)nc21
-1.4	-19%	CC/C=C\C/C=C\C/C=C\C/C=C\C/C=C\C/C=C\CCC(N)=O

# Looked up by compound from the entries so far, 4 records:
Menin-MLL FL inh	Sfp PPTase inh	SMILES
0.0[24.8 µM]	7%	CC(=O)[C@@H]1CC[C@@H]2[C@@H]3CCC4=CC(=O)CC[C@@]4(C)[C@H]3CC[C@]21C
-5.1	17%	CCN1C(=O)[C@@H]2[C@H](C1=O)[C@@H]1C[C@H]3C(=O)N(CC)C(=O)[C@H]3[C@@H]3C1=C(C(=O)N1C(=O)O/C(=N\CC4CC4)[C@]31C)[C@@H]2C
14	17%	COc1ccc(C(=O)N2CCC3(CCCN(Cc4ccc(C#N)cc4)C3)CC2)cc1
3.1	15%	CC(C)C[C@H](NC(=O)[C@@H]1CCC(=O)N1)C(=O)N[C@@H](Cc1ccc(O)cc1)C(=O)N[C@@H](CCC(=O)O)C(=O)N[C@@H](CC(N)=O)C(=O)N[C@@H](CCCCN)C(=O)N1CCC[C@H]1C(=O)N[C@@H](CCCN=C(N)N)C(=O)N[C@@H](CCCN=C(N)N)C(=O)N1CCC[C@H]1C(=O)N[C@@H](Cc1ccc(O)cc1)C(=O)O

# The results go on:
Menin-MLL FL inh	Sfp PPTase inh	SMILES
-0.5[11.7 µM]	-14%	O=C1[C@H]2[C@H]3[C@H](O)[C@H](O)C/C(=N/OC[C@@H](O)COCc4ccco4)[C@H]3CC[C@@H]2C(=O)N1c1cccc(Oc2ccccc2)c1
2.9	-26%	NC(=S)N/N=C/c1cccnc1
-0.6[11.7 µM]	1%	CCc1cc2c(nc1CC)CCN(CC/C(C)=N/OC[C@@H](O)COCc1ccco1)C2
1.3	-2%	CC(=O)c1ccc(-c2c(C3C4C=CCCC4(C)C(=O)N3Cc3ccccc3)ccc3ccccc23)cc1 (stereo unspecified)
1.8	6%	COC(=O)C1=C[C@@H](C(=O)OC)[C@@H]2C3=C(C(=O)[C@]2(C)NC(=O)c2ccccc2)[C@H](C)[C@@H]2C(=O)NC(=O)[C@@H]2[C@@H]3C1
2.4	-2%	COc1cc(/C=N/NC(=O)c2cncc(Br)c2)ccc1OC(=O)c1ccc2c(c1)OCO2
3.1&2.3	-4%&-19%	N[C@H](CO)C(=O)O
-1.1[11.7 µM]	-3%	CC1CCC2C(=O)N3C(CCC(C)[C@H]3c3cccc(N4CCCC4=O)c3)C(=O)N2C1c1cccc(N2CCCC2=O)c1 (stereo partly specified)
-2.4[11.7 µM]	-6%	CO[C@H]1COC(=O)CCC[C@@H](C)[C@H](OC)COC(=O)[C@H]2CCCN2C(=O)C/C=C\[C@@H]1C
-0.9&-2.6	-13%&0%	COC(=O)C1(C(=O)OC)CC(CO)C(=O)[C@H]1c1ccccc1 (stereo partly specified)
-7.9	24%	CCN1CCCC1Cn1c(-c2ccccc2)nc2c(NCCOC)nc(C)nc21 (stereo unspecified)
-3.0&35	24%&2%&-3%&-8%	CC1(C)CCC(C)(C)c2cc(C(=O)Nc3ccc(C(=O)O)cc3)ccc21
5.7	12%	CCCCC(=O)N1C/C=C\C(c2ccc(OC)cc2)N(Cc2ccc(F)cc2)C(=O)C1C (stereo unspecified)
2.7	7%	O=c1c(-c2cccs2)nc2cncnc2n1C1CC1
16	3%	CC(=O)N1CCC2(CCCN(Cc3cc(C(F)(F)F)cc(C(F)(F)F)c3)C2)CC1
-2.4	50µM*	CC1=C[C@@H](O)CC(C)(C)[C@@H]1/C=C/C(C)=C/C=C/C(C)=C/C=C/C=C(C)/C=C/C=C(C)/C=C/C1=C(C)C[C@H](O)CC1(C)C
2.4	-38%	COc1cc(O)c(C(=O)/C=C/c2ccc(OC)c(O)c2)c(OC)c1
-1.4	?	Cc1noc(C)c1-c1ccc2ncnc(NCc3ccc(F)cc3)c2c1
-6.3	-9%	COc1ccc(-c2coc3c(O)c(OC)ccc3c2=O)cc1
-3.6	3%	CC1CCCC(NC(=O)c2cn(C)c3ccc(S(=O)(=O)N4CCCC4)cc3c2=O)C1C (stereo unspecified)
-9.7	3%	COCCn1c(=O)c(-c2ccccc2)nc2cnc(Oc3cccc(Cl)c3)nc21
0.5[24.8 µM]	19%	CC(C)(C)C(=O)OCOC(=O)[C@@H]1N2C(=O)[C@@H](NC(=O)[C@H](N)c3ccccc3)[C@H]2SC1(C)C
4.0[11.7 µM]	-5%	C#CCCCO/N=C1/C[C@@H](O)[C@@H](O)[C@@H]2[C@@H]3C(=O)N(CC)C(=O)[C@H]3CC[C@H]12
11	-7%	CC(C)=CCC1C(=O)N(c2ccccc2)N(c2ccccc2)C1=O
4.0&8.1	-6%	C/C=C1\C(=O)CC2C3CCC4=CC(=O)CC[C@]4(C)C3CC[C@]12C (stereo partly specified)
-1.2	28%	CN1CCN(c2ncncc2-c2ccc(C(=O)N(C)C)cc2)CC1
2.5	1%	COc1cccc(-c2ccc3ncnc(Nc4ccccc4)c3c2)c1
-1.1	16%	CS(=O)(=O)N1CCC[C@@]2(CCN(Cc3ccc(C#N)cc3)C2)C1
0.0	15%	COc1ccc(C2/C=C\CN(C(=O)C3CC3)C(C)C(=O)N2Cc2ccc(F)cc2)cc1 (stereo unspecified)
0.0	27%	CCC/C=C(\CCC)C(NS(=O)(=O)c1ccccc1)c1ccc(C(F)(F)F)cc1 (stereo unspecified)

# In another format: results already given.
CC/C=C\C/C=C\C/C=C\C/C=C\C/C=C\C/C=C\CCC(N)=O
- Menin-MLL FL inh = -1.4
- Sfp PPTase inh = -19%
COc1ccc(Oc2ncc3nc(C)c(=O)n(-c4ccc(OC)cc4)c3n2)cc1
- Menin-MLL FL inh = 0.0
- Sfp PPTase inh = 12%
C#CCCCO/N=C1/C[C@@H](O)[C@@H](O)[C@@H]2[C@@H]3C(=O)N(CC)C(=O)[C@H]3CC[C@H]12
- Menin-MLL FL inh = 4.0[11.7 µM]
- Sfp PPTase inh = -5%

# Later entries:
Menin-MLL FL inh	Sfp PPTase inh	SMILES
0.8	16%	N#Cc1cccc(-c2nc(NCc3ccccc3)c3ccccc3n2)c1
0.1	4%	NC(=O)c1cccc(C[C@H](C(=O)O)N2C(=O)c3ccc(C(=O)O)cc3C2=O)c1
7.2	17%	O=c1cnc2cnc(N3CCOCC3)nc2n1CCc1ccccc1
-1.4	-28%	CC(=O)Oc1ccc2c(c1)CCC1C2CC[C@]2(C)C(OC(C)=O)CCC12 (stereo partly specified)
-0.3	20%	COc1ccc(-c2nc3cnc(Oc4ccccc4)nc3n(Cc3cccs3)c2=O)cc1
-2.2	21%	Cc1ccc(SCC(Cc2ccccc2)N2CCN(C)CCC2=O)cc1 (stereo unspecified)
-1.0	-18%	C=C1C(CCl)(CCl)C2(Cl)C(Cl)C(Cl)C1(Cl)C2(Cl)Cl (stereo unspecified)
0.2	-19%	CCCC[C@@H]1C[C@H]1[C@@H](NP(=O)(c1ccccc1)c1ccccc1)c1ccccc1OC
-3.6	79µM*	COc1cccc(-c2nccc(NCc3cccs3)n2)c1
-29	6%	COC(=O)C1=C(C)NC(C)=C(C(=O)OCCSc2ccccc2)[C@@H]1C
2.3	-26%	CCC1CC=CC2C1C(=O)N(Cc1ccccc1)C2c1cccc([N+](=O)[O-])c1 (stereo unspecified)
-25	?	CN(Cc1ccco1)c1ncncc1-c1cccnc1
4.8	22%	COc1ccc(-c2nc3cnc(OC)nc3n(CCC#N)c2=O)cc1
-11	-9%	COc1ccc2c(c1)O[C@@H](c1cccc(C(F)(F)F)c1)[C@H](OC(=O)NC1CCCC1)C2=O
-3.2	7%	C[C@@H]1O[C@@H](OC2O[C@@H](COc3cc(O)c4c(=O)cc(-c5ccc(O)cc5)oc4c3)[C@@H](O)[C@@H](O)[C@@H]2O)[C@H](O)[C@H](O)[C@H]1O (stereo partly specified)
0.3	0%	COCOc1cc(OC)ccc1C(=O)/C=C/c1ccc([N+](=O)[O-])cc1
2.3[11.7 µM]	1%	CCN1C(=O)[C@H]2[C@H]3[C@H](O)[C@H](O)C/C(=N/NC(=O)OCc4ccc(OC)cc4)[C@H]3CC[C@@H]2C1=O
1.9	15%	COC(=O)c1ccc(C(NC(=O)OCc2ccccc2)/C(C)=C/[C@@H](C)C(=O)NCc2nc3ccccc3s2)cc1 (stereo partly specified)
2.9	5%	COC(=O)CCC[N+](C)(C)C
-1.1	5%	N#Cc1cccc(NC(=O)N2CC3(CCN(C(=O)c4ccco4)CC3)C2)c1
0.4	-3%	Cc1ccccc1-c1nc(N2CCN(C)CC2)c2ccccc2n1

# Only part of the results is shown (hit frequency here may not be typical).
